Compound activity: PubChem BioAssay, National Center for Advancing Translational Sciences (NCATS)
VACV mCherry inh: qHTS for Stage-Specific Inhibitors of Vaccinia Orthopoxvirus: mCherry Reporter Primary qHTS; Potency, µM (series often up to 36.5 µM), without a hit: at the highest dose activity change, negative = inhibition, most hits filed as inhibitors; Vaccinia virus mCherry reporter infection, fluorescence; about a quarter of the inactives have no number; AID 720579, 2013; 0.63% of 310,000 active; active = well fitted inhibition curve with a large enough effect; inconclusive = small, poorly fitted or top-dose-only effect; inactive = no such curve, though single readings can be large or run the other way; tested in A549 cells; also: nearly all actives have a fitted effect of over 35% in size; inactives centre near -10
VACV Venus inh: qHTS for Stage-Specific Inhibitors of Vaccinia Orthopoxvirus: Venus Reporter Primary qHTS | Vaccinia virus Venus reporter expression, fluorescence | Potency, µM (top dose mostly 36.5 µM), for inactives: at the top dose activity change, negative = inhibition, most hits filed as inhibitors | 0.46% of 330,000 active; active means well fitted inhibition curve with a large enough effect; inconclusive means small, poorly fitted or top-dose-only effect; inactive means no such curve, though single readings can be large or run the other way; tested in A549 cells; also: nearly all actives have a fitted effect of over 30% in size; inactives centre near -10
* hit, by the source's call; i = inactive; ? = inconclusive; . = no result given; [ ] = remark or other dose. % is scaled to controls: 0 for no effect and ±100 for the full control effect; potency is read from the fitted curve at half-maximal effect.

No.	mol	VACV mCherry inh	VACV Venus inh
1	Cc1cc(N2CCN(c3ccccn3)CC2)n2c(nc3ccccc32)c1C#N	-2%	0%
2	O=C(Nc1ccccc1N1CCOCC1)c1ccc2c(c1)OCO2	-3%	-3%
3	Cc1noc(C)c1C(=O)NNc1cc(Cl)ccc1Cl	?	5%
4	c1ccc(C2CC(c3ccccc3)C(c3ccccc3)N2)cc1 (configuration not stated)	-10%	-3%
5	Cc1ccccc1NC(=S)N(Cc1cccnc1)Cc1ccco1	-3%	-5%
6	COc1ccc(-c2cc(C(=O)N/N=C/c3sccc3C)c3ccccc3n2)c(OC)c1	28µM*	-20%
7	Cc1ccc(S(=O)(=O)N2C[C@H]3n4c(=O)ccc(=O)n4C[C@H](OC(=O)Nc4cccs4)[C@@]3(O)C2)cc1	?	-24%
8	COc1cc(CNC(=O)c2cc(-c3ccc(F)cc3OC)n[nH]2)cc(OC)c1	5%	12%
9	Nn1c(SCC(=O)NCC2CCCO2)nnc1-c1cc(Cl)ccc1Cl (configuration not stated)	-1%	-2%
10	O=C(NC(=S)N1CCc2ccccc21)c1ccccc1	-15%	-18%
11	CN(Cc1ccon1)C(=O)c1cnn(-c2ncc3c(n2)-c2ccccc2CCC3)c1C1CC1	-14%	0%
12	C[C@H](CO)N1C[C@H](C)[C@@H](CN(C)Cc2ccc(-c3ccccc3)cc2)Oc2c(NC(=O)Nc3ccc(C(F)(F)F)cc3)cccc2C1=O	-21%	-21%
13	COc1ccc(N(C(=O)c2ccco2)C(C(=O)NC2CCCC2)c2ccncc2)cc1 (configuration not stated)	i	5%
14	O=C(OCc1nnc(-c2ccccc2)o1)c1ccc2c(c1)OCO2	-14%	-16%
15	OCC1OC(n2ccc3c(SCc4ccccc4)ncnc32)C(O)C1O (configuration not stated)	-6%	-18%
16	CCOc1cc(/C=N/NC(=O)CN2CCCCC2)ccc1OCc1ccccc1	i	-11%
17	CC1(C)Cc2cccc(Oc3ccc(S(=O)(=O)N4CCCC4)cn3)c2O1	-6%	-8%
18	Cc1cc(C)n2[nH]c(=O)c(N=Nc3cccc(Cl)c3)c2n1	.	7%
19	CN(C(=O)Oc1ccc(C(=O)c2ccc(Cl)cc2)cc1)c1ccccc1	-29%	-19%
20	CC(Oc1ccc(-c2ccccc2)c(F)c1)c1ccn(S(=O)(=O)c2ccc(F)cc2)n1 (configuration not stated)	i	-29%

An excerpt of these results, with values under each structure.
Value order – VACV mCherry inh	VACV Venus inh
1: Cc1cc(N2CCN(c3ccccn3)CC2)n2c(nc3ccccc32)c1C#N
 : -2%	0%
2: O=C(Nc1ccccc1N1CCOCC1)c1ccc2c(c1)OCO2
 : -3%	-3%
3: Cc1noc(C)c1C(=O)NNc1cc(Cl)ccc1Cl
 : ?	5%
4: c1ccc(C2CC(c3ccccc3)C(c3ccccc3)N2)cc1 (configuration not stated)
 : -10%	-3%
5: Cc1ccccc1NC(=S)N(Cc1cccnc1)Cc1ccco1
 : -3%	-5%
6: COc1ccc(-c2cc(C(=O)N/N=C/c3sccc3C)c3ccccc3n2)c(OC)c1
 : 28µM*	-20%
7: Cc1ccc(S(=O)(=O)N2C[C@H]3n4c(=O)ccc(=O)n4C[C@H](OC(=O)Nc4cccs4)[C@@]3(O)C2)cc1
 : ?	-24%
8: COc1cc(CNC(=O)c2cc(-c3ccc(F)cc3OC)n[nH]2)cc(OC)c1
 : 5%	12%
9: Nn1c(SCC(=O)NCC2CCCO2)nnc1-c1cc(Cl)ccc1Cl (configuration not stated)
 : -1%	-2%
10: O=C(NC(=S)N1CCc2ccccc21)c1ccccc1
 : -15%	-18%
11: CN(Cc1ccon1)C(=O)c1cnn(-c2ncc3c(n2)-c2ccccc2CCC3)c1C1CC1
 : -14%	0%
12: C[C@H](CO)N1C[C@H](C)[C@@H](CN(C)Cc2ccc(-c3ccccc3)cc2)Oc2c(NC(=O)Nc3ccc(C(F)(F)F)cc3)cccc2C1=O
 : -21%	-21%
13: COc1ccc(N(C(=O)c2ccco2)C(C(=O)NC2CCCC2)c2ccncc2)cc1 (configuration not stated)
 : i	5%

Next part.
No.	mol	VACV mCherry inh	VACV Venus inh
21	Cc1ccc(C)c(NC(=O)CCCN2C(=O)COc3ccc(C)cc32)c1	-9%	-4%
22	CC(=O)Nc1cc(C(=O)N2CCc3ccccc3C2)ccc1Sc1ccc(Cl)cc1	i	-20%
23	Cc1cc2oc3c(c(=O)c2cc1C)C1(C(=O)N(C)c2ccccc21)N(CCO)C3=O (configuration not stated)	-9%	-5%
24	CCOC(=O)c1ccc(Nc2nc(=O)c3cccnc3s2)cc1	10µM*	1%
25	Cc1cccc(CNCCc2ccccc2)n1	0%	-5%
26	CCOC(=O)C1(C)CCN1C(=O)c1cc(OC)c(OC)c(OC)c1 (configuration not stated)	-12%	-7%
27	CCCCc1nc(SCCOC)c2c(=O)n(C)c(=O)n(C)c2n1	i	1%
28	O=S(=O)(c1ccc2oc3ccccc3c2c1)N1CCCC1	-13%	-2%
29	C=CCSc1nc2ccsc2c(=O)n1-c1ccccc1	-40%	-16%
30	CC(=O)c1cccc(NC(=O)c2cc3nc(-c4ccc(Br)cc4)cc(C(F)(F)F)n3n2)c1	13µM*	?
31	CCn1cc(C(=O)O)c(=O)c2cc(F)c(N3CCN(C(=S)NC(=O)c4ccccc4Br)CC3)cc21	3%	1%
32	O=C(c1c(O)c2ccc(Cl)cc2[nH]c1=O)C1CC1	-6%	-4%
33	CN(CC1CCCN(CCc2ccc(F)cc2)C1)C(=O)CCC(F)(F)F (configuration not stated)	i	-15%
34	Cc1ccc(C)c(Cn2c(CN(C)Cc3ccccc3)nc3c2c(=O)n(C)c(=O)n3C)c1	-6%	-23%
35	O=C(CSc1ccccc1C(=O)O)NC1CCCCCC1	i	0%
36	O=C(NCc1ccccn1)C1CCN(C2CCN(Cc3cccc(F)c3)CC2)CC1	-16%	-8%
37	CCOc1ccc(NS(=O)(=O)c2ccc(C(=O)NCC(c3ccco3)N(C)C)cc2)cc1 (configuration not stated)	-7%	-16%
38	CCN(C[C@H]1N[C@@](C)(C(=O)OC)[C@H]2C(=O)N(C)C(=O)[C@@H]12)C(=O)Nc1ccc(F)cc1	-13%	-9%
39	Cc1c(N)cccc1-c1nc2ccccc2[nH]1	-18%	-11%
40	O=C(Cc1cccs1)NCCSc1c(-c2ccc(Cl)cc2)[nH]c2ccccc12	11µM*	13µM*
41	FC(F)(F)c1cccc(NC(=S)N2CCCC2)c1	-11%	-9%
42	CCC/C=C(\CCC)C(NC(=O)Cc1ccccc1)c1ccc(C(=O)OC)cc1 (configuration not stated)	i	-18%
43	COc1ccc(NC(=O)Nc2nnc(N(C)C3CCCCC3)s2)c(OC)c1	-11%	-9%
44	CC1CC(C)CN(S(=O)(=O)c2cccc(C(=O)N3C(=O)c4cccc(N)c4C3=O)c2)C1 (configuration not stated)	-26%	-21%
45	Cc1cc(Br)ccc1NC(=S)Nc1cccc([N+](=O)[O-])c1	?	-20%
46	COc1ccc(-c2cccc(NS(=O)(=O)c3cc(C)c(OC)c(C)c3C)c2)nn1	-17%	-27%
47	Cn1c(=O)oc2cc(S(=O)(=O)CCC(=O)NCc3ccccc3)ccc21	-1%	-2%
48	CCOC(=O)/C=C/C(=O)Nc1ccccc1C(=O)NC1CCCCC1	-11%	11%
49	CN(C)C(CNC(=O)c1cc(S(=O)(=O)N(C)Cc2ccccc2)ccc1Cl)c1ccco1 (configuration not stated)	i	-20%
50	OC(CN1CCN(c2ccccc2)CC1)c1c[nH]c2ccccc12 (configuration not stated)	-2%	-19%

Pulled one by one from the list above, 2 records:
No.	mol	VACV mCherry inh	VACV Venus inh
45	Cc1cc(Br)ccc1NC(=S)Nc1cccc([N+](=O)[O-])c1	?	-20%
47	Cn1c(=O)oc2cc(S(=O)(=O)CCC(=O)NCc3ccccc3)ccc21	-1%	-2%

(next part)
No.	mol	VACV mCherry inh	VACV Venus inh
51	COC(=O)c1cn(C(=O)c2cc(C)cc(C)c2)c2ccccc12	1%	-4%
52	O=C(O)CN1C(=O)/C(=C2\SC(=S)N(C(Cc3ccccc3)C(=O)O)C2=O)c2ccccc21 (configuration not stated)	i	-8%
53	CCCC12CN3CC(CCC)(CN(C1)C3c1ccco1)C2=O (configuration not stated)	i	5%
54	CC(C)(C)SCCNC(=O)/C=C/c1ccccc1	-20%	-4%
55	Cc1ccc(-c2nc3c4ccccc4n(CC(=O)NCc4ccc(F)cc4)c(=O)n3n2)cc1	-1%	1%
56	CN1CCc2c(n(CC(O)CN3C(=O)c4ccccc4S3(=O)=O)c3ccccc23)C1=O (configuration not stated)	.	-23%
57	Cc1ccc(CN2CCC[C@]3(N[C@H](c4ccc(C)cc4)[C@@H]4C(=O)N(C)C(=O)[C@@H]43)C2=O)cc1	-22%	-23%
58	CCOc1cc(CN2CCc3c([nH]c4ccccc34)C2)ccc1OC	-19%	-12%
59	O=C(NCC1CCCCC1)c1csc([C@@H]2C[C@H](O)[C@@H](CO)O2)n1	i	0%
60	COc1ccc(Cl)cc1NC(=O)c1cnc2n(c1=O)CCS2	2.2µM*	?
61	CCn1cc(C(=O)N[C@@H](C)C(=O)NCCO)c(=O)c2cc3c(cc21)OCO3	i	-1%
62	CC1CCCN(S(=O)(=O)c2ccc(Cl)s2)C1 (configuration not stated)	12%	28%
63	Cc1ccc(/C=C/C(=O)NCCc2cccc(Cl)c2)o1	i	-12%
64	CC(C)C(NS(=O)(=O)c1cc(C(=O)O)ccc1Cl)C(=O)O (configuration not stated)	i	2%
65	OC(CNCc1cccc(Br)c1)c1ccccc1 (configuration not stated)	-10%	-13%
66	COC(CNC(=O)c1ccc2nc(-c3cccs3)c(-c3cccs3)nc2c1)OC	i	-29%
67	COc1ccc(-c2nc3ccc([N+](=O)[O-])cc3[nH]2)cc1	-28%	-26%
68	O=C(c1nnc(Cc2ccc(Cl)cc2)o1)N1CCc2ccccc2C1	i	-18%
69	COc1cccc(C(O)c2nc(-c3cccc(C(F)(F)F)c3)cs2)c1 (configuration not stated)	-29%	-4%
70	O=C(CSc1nc2ccccc2n1Cc1cccc(F)c1)N1CCN(c2ccc(F)cc2)CC1	-15%	-22%
71	O=C(NCCCn1ccnc1)C(=O)c1c[nH]c2ccccc12	-17%	-5%
72	Cc1ccc(S(=O)(=O)c2c(COC(=O)c3ccccc3Cl)c(-c3ccccc3)nn2C)cc1	.	-18%
73	CC(C)(C)C(=O)Oc1ccc2cc(-c3ccc4ccccc4n3)c(=O)oc2c1	-18%	2%
74	COc1ccc(O)c(-c2c(-c3ccc(Cl)cc3)n[nH]c2C)c1	-26%	?
75	CCSc1ccc(-c2cccc([N+](=O)[O-])c2)nn1	-7%	-3%
76	CC(C)c1cnc2c(c1SCC(=O)NC(C)(C)C)c(=O)n(C)c(=O)n2C	-7%	-4%
77	Cc1ccc(S(=O)(=O)Nc2ccc(N(C)C)cc2)cc1	-23%	-13%
78	COc1ccccc1NC(=O)CCN1C(=O)c2ccccc2C1=O	-10%	-2%
79	CC(C)N(C(=O)Cn1cc(S(=O)(=O)CC(=O)Nc2ccccc2)c2ccccc21)C(C)C	-19%	-15%
80	CC(O)(c1cccnc1)c1nc(-c2ccoc2)cs1 (configuration not stated)	36%[activator]	-2%
81	COCCNC(=O)c1c(N)n(/N=C/c2cccs2)c2nc3ccccc3nc12	i	-8%
82	Cc1noc(C)c1COC(=O)c1cccc(S(=O)(=O)N2c3ccccc3CC2C)c1 (configuration not stated)	?	?
83	COc1cccc(S(=O)(=O)NCc2ccc(C(=O)NCc3ccco3)cc2)c1	-3%	-7%
84	O=C(NCCCO)c1nc2ccccc2s1	-14%	-7%
85	Cc1ccc2cc(S(=O)(=O)NCCCN3CCOCC3)ccc2c1	-3%	-16%
86	COC(=O)c1cn(NC(=O)COc2ccc(Cl)cc2)c(=O)c2ccccc12	-1%	-9%
87	O=C(CSc1nc(=O)n(Cc2ccco2)c2c1CCC2)NCc1ccccc1Cl	-24%	-21%
88	Cc1ccnc2nc(C(=O)OCC(=O)NCCc3ccc(Cl)cc3)nn12	-22%	-11%
89	C#CC(C)OC(=O)C(C)NC(=O)c1ccccc1 (configuration not stated)	i	-6%
90	Cc1ccc(-c2nc(CS(=O)CC(=O)NCCN3CCOCC3)c(C)o2)cc1 (configuration not stated)	-2%	-10%
91	c1ccc(-c2noc(CN3CCN(c4ccccc4)CC3)n2)cc1	4%	6%
92	O=C(Nc1cccnc1)c1ccccc1Oc1ccccc1	-6%	-1%
93	COc1ccc(C2(C(=O)Nc3ccc(S(=O)(=O)Nc4nc(C)cc(C)n4)cc3)CCCC2)cc1OC	-6%	0%
94	CCOc1ccccc1NC(=O)Nc1nnc(N(C)Cc2ccccc2)s1	-7%	2%
95	Cc1ccc(OCC(=O)Nc2cc(-c3nc4cc(Cl)ccc4o3)ccc2C)c(C)c1	-5%	-11%
96	Cc1ccccc1NS(=O)(=O)c1ccc2[nH]cc(C(=O)NCCCN3CCOCC3)c(=O)c2c1	.	1%
97	O=C(Nc1c(Cl)ccc2nsnc12)c1ccco1	-13%	-13%
98	COc1ccc(NC2=C(C(C)=O)C(c3ccc(N(C)C)cc3)C(C(C)=O)C(C)(O)C2)cc1 (configuration not stated)	i	-9%
99	COc1ccc(/C=N/NC(=O)CNc2c(Br)cc(C)cc2Br)c(C(=O)O)c1OC	-2%	-1%
100	CCOC(=O)N1CCN(Cc2c(NC(=O)c3ccco3)sc(C)c2C)CC1	-11%	-3%
101	COc1ccc(-c2nc3cc(C)ccc3cc2CN(C(=O)c2csc(C)n2)C2CC2)cc1OC	-7%	-2%
102	Nc1nc(CN2CCN(C(=O)c3ccco3)CC2)nc(Nc2cccc(Cl)c2)n1	?	-27%
103	O=C(NCc1ccncc1)Nc1ccc(F)cc1	i	-18%
